MT1-MMP act inh = blockers of MT1-MMP proenzyme processing, primary screen, HT1080 RFP-PRO-GFP cells, GFP/RFP fluorescence | GFP/RFP ratio change, % at 20 µM | hit rate 0.061% among 360,000 | Matrix metalloproteinase-14 (Homo sapiens), P50281 | GFP/RFP ratio fluorescence, overnight; percent of plate control window, DMSO zero | AID 651647, 2012;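 active = GFP/RFP ratio change of at least 30% with cell ATP level not reduced by more than half and red fluorescence within 50% of control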; note: strong numbers were not always called active
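Assay system: HT1080 cells carrying an RFP-PRO-GFP reporter | Dosing: Single dose of 20 µM compound, 1% DMSO final | Incubation: Cells overnight before dosing, compound overnight, 37 °C, 5% CO2 | Evaluation: GFP/RFP fluorescence ratio | Control set: DMSO and RFP-L50D-GFP cell wells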
CSC inhib = cancer stem cell viability inhibitors, primary screen, luminescence; cancer stem cell-like cells viability; inhibition, % at 7.5 µM; hit rate 1.1% among 300,000; AID 2717, 2010;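 active = mean at 75% or more and at least half the replicates too; inconclusive = mean and replicates disagree; tested in HMLE shEcad cells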;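 note: 0% = median of negative and 100% = median of positive control wells; the first replicate is given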
Yeast UUG start = modulators of yeast start codon fidelity, primary screen, whole organism, S. cerevisiae, single point, plate reader; S. cerevisiae UUG-firefly luciferase reporter, luminescence/redox ratio; activity score, % at 18.7 µM; hit rate 0.13% among 350,000; AID 602363, 2012;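 active = replicate mean at a twofold rise or more, about +100% in these data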;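 note: firefly luciferase made from a UUG start codon reports start codon fidelity; reporter light over untreated wells divided by growth signal over untreated wells; some hits fall short of that in this replicate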
HIV Env fusion = inhibitors of HIV-1 Env-driven cell-cell fusion, primary screen, HeLa-JRFL effector, CEM21 target cells, luciferase | AID 651610, 2012 | hit rate 1.1% among 360,000 | inhibition, % at 12.3 µM;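 active = mean replicate inhibition score of at least 50 and every replicate individually at or above 50; inconclusive = only one of the two criteria met; inactive = mean below 50 and not all replicates reaching 50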;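 note: 0% = plate neutral controls and 100% = maraviroc near 300 nM; one replicate is shown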
PABP FP inh = PABP poly(A) RNA binding inhibitors, primary screen, biochemical, fluorescence polarization, uHTS. Polyadenylate-binding protein 1 (Homo sapiens), P11940. hit rate 1% among 290,000. inhibition, % at 35 µM. AID 2014, 2009;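 active = 50% or more with normal probe brightness, or confirmed in later tests; inconclusive = above 50% with abnormal brightness, or retests that disagree; inactive = below 50% or failed in later tests; about a fifth of its hits are not listed in these tables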;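 note: calls also rest on retests at 20 µM and on dose response follow-up; controls were probe without protein and protein plus probe with vehicle; some compounds called inactive have numbers as strong as hits; many hits fall short of the cut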
Target sequence (P11940 whole entry, looked up): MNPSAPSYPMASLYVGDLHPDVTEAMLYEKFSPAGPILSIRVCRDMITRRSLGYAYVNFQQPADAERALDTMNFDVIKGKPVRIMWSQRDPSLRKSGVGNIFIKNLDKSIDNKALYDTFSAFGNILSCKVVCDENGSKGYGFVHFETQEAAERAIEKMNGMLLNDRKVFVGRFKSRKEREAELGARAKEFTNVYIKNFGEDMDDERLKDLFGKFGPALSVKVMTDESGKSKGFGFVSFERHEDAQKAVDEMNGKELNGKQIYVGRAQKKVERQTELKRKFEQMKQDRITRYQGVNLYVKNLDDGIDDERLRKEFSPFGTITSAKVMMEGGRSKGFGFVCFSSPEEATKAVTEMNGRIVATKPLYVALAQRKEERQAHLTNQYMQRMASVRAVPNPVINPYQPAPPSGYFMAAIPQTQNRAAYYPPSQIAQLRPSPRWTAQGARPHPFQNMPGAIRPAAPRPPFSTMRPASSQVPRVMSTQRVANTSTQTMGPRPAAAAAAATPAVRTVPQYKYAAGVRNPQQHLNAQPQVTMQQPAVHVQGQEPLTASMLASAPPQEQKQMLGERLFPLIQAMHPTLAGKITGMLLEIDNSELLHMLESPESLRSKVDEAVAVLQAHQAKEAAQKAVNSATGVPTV
eIF4H inh = human eIF4H binding inhibitors, primary screen, translation initiation inhibitor project, biochemical, uHTS, fluorescence polarization; hit rate 0.94% among 290,000; Eukaryotic translation initiation factor 4H (Homo sapiens), Q15056; inhibition, % at 35 µM; eIF4H fluorescence polarization binding assay;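 active = 50% or more with normal probe brightness, or confirmed in later tests; inconclusive = above 50% with abnormal brightness, or retests that disagree; inactive = below 50% or failed in later tests; about a fifth of its hits are not listed in these tables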;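 note: calls also rest on retests at 20 µM and on dose response follow-up; 0% = protein and probe with vehicle and 100% = probe without protein; strong numbers were not always called active; many hits fall short of the cut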
Rce1 inhib = yeast Rce1p protease inhibitors, primary screen, biochemical, fluorescence, cell-free homogeneous. CAAX prenyl protease 2 (Saccharomyces cerevisiae (strain ATCC 204508 / S288c)), Q03530. yeast membranes, quenched prenylated peptide cleavage fluorescence. calls only. hit rate 0.27% among 290,000;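 active = fall in fluorescence gain of 50% or more versus controls, with final raw signal at or below 3038400; inconclusive = same 50% fall but final raw signal above 3038400; inactive = fall in fluorescence gain under 50%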;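 note: plate controls were neutral control wells for no effect and wells lacking membranes for full effect; tested at 10 µM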
eIF4H inh retest = recorded beside eIF4H inh, whose call it bears; inhibition, %; compound at 20 µM; confirmation average;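 mean of two retest wells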
PABP FP inh retest = also measured in PABP FP inh; calls as there; inhibition, %; compound at 20 µM; confirmation repeats;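 mean of two retest wells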
MT1-MMP act inh RFP = further read-out of MT1-MMP act inh, marked with its call; RFP signal change, %; measured here: RFP expression control read;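 0 = vehicle wells; hits needed this value within 50% of zero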
Starred values were filed as active, the others as inactive; i = inactive; ? = inconclusive; / = not tested or not shown; & = joins results of further samples. An excerpt; count on the stated rates, not on these rows.

SMILES	MT1-MMP act inh	MT1-MMP act inh RFP	CSC inhib	Yeast UUG start	HIV Env fusion	PABP FP inh	eIF4H inh	Rce1 inhib	others
CCOC(=O)C1=C(COC(=O)CNC(=O)c2ccc(C)cc2)NC(=O)NC1C (centres undefined)	-1.8	4.0	/	-11.7	-128.8	-8.6	-1.0	i
CCCCNC(=O)c1cn(CC)c2cc(N3CCN(C)CC3)c(F)cc2c1=O	-1.5	0.1	29.0	-18.1	8.7	-2.2	2.8	/
Nc1cc(=O)[nH]c(SCC(=O)Nc2ccccc2-c2ccccc2)n1	1.8	0.6	-13.6	-9.9	6.5	17.6	-7.0	i
Brc1ccc(-c2nnc3sc(CNC4CCCC4)cn23)cc1	2.9	3.5	/	-13.3	-12.7	5.5	2.8	i
O=C1CCCN2N=C(SCC(=O)Nc3ccccc3C(F)(F)F)SC2=N1	1.7	5.6	-18.7	15.8	/	-8.5	4.3	i
O=S(=O)(c1ccccc1)N1CN(Cc2ccc(F)cc2)c2nc3ccccc3nc21	0.5	-1.2	4.1	/	-2.9	-9.5	-0.9	i
COc1ccccc1NS(=O)(=O)c1cc(C(=O)NCC(c2ccco2)N(C)C)ccc1C (centres undefined)	-3.7	-6.4	-0.6	/	-3.3	/	/	i
CCOC(=O)c1c(NC(=O)Cn2cnc3sc(C)c(-c4ccccc4)c3c2=O)sc(C)c1C	-10.0	-5.7	8.3	/	25.9	0.5	-4.0	i
COc1ccc(-c2nnc(SCc3nnc(-c4ccccc4)o3)n2-c2ccccc2)cc1	-0.9	-9.5	-7.5	-6.6	-19.5	0.0	0.7	i
CCOC(=O)CN1C(=O)C(=O)N(Cc2c(F)cccc2Cl)C1=O	3.2	4.1	-15.7	11.3	-7.0	3.1	1.4	i
CCOC(=O)c1[nH]c2ccccc2c1NC(=S)Nc1ccccc1C	-0.8	2.0	2.3	-19.1	-5.5	95.1	1.0	i	eIF4H inh retest=-9.3;PABP FP inh retest=7.3
N=c1ccn(Cc2ccc(Cl)cc2)cc1	10.3	-3.9	14.2	-25.2	/	-2.9	1.7	i
Cn1c(CC(=O)Nc2ccccc2F)nnc1SCC(=O)Nc1ccccc1Br	0.1	-1.6	-32.1	-9.1	0.5	2.5	-1.0	i
O=C(N/N=C/c1cccnc1)c1ccccc1[N+](=O)[O-]	5.1	6.7	1.3	/	-3.5	4.8	-4.5	i
O=C(NCCc1ccccc1)C(=O)N/N=C/c1ccccc1C(F)(F)F	-1.8	3.8	-6.0	/	/	-3.7	-11.7	i
COc1ccc(Nc2nc(Cl)nc(NCc3ccco3)n2)cc1	3.2	1.7	-1.4	-8.8	/	-16.3	-1.7	i
COc1ccc(S(=O)(=O)N2CCN(C(=O)c3cc4c(s3)CCCC4)CC2)cc1	13.7	-8.6	/	-10.9	-175.9	/	/	/
C/C(=N/NS(=O)(=O)c1ccc(C)cc1)[C@H]1C[C@@H]1c1ccccc1	-0.2	0.3	-4.9	-20.7	-10.7	-7.7	3.5	i
C[C@@H]1CN([C@H](C)CO)C(=O)c2c(c3ccccc3n2C)-c2ccccc2CO[C@H]1CN(C)Cc1ccc(Oc2ccccc2)cc1	5.7	0.5	/	-7.8	?	/	/	/
N#C/C(=C\c1ccccc1)C(=O)Nc1ccccn1	-1.8	0.2	-2.0	-16.3	-0.4	-6.6	-4.1	i
COc1cc(/C=C/C(=O)O)cc(S(=O)(=O)N2CCN(S(=O)(=O)c3ccc(Cl)cc3)CC2)c1OC	-1.0	3.7	-11.2	-1.6	-15.4	8.5	-3.2	i
Cc1cc(C(=O)COC(=O)C2=NN(c3ccccc3)C(=O)CC2)c(C)n1CC(F)(F)F	-1.3	5.4	-15.4	/	-2.7	-44.0	5.6	i
c1ccc2c(CNCCN3CCOCC3)cccc2c1	1.2	4.2	2.4	2.1	/	17.4	-4.0	i
CCOC(=O)CCC(=O)OCC(=O)NC(C)C1CC2CCC1C2 (centres undefined)	-0.2	-1.8	-10.6	4.7	/	-1.0	0.3	i
CCc1cccc(C)c1NC(=S)N1CCCC1C(=O)O (centres undefined)	1.5	5.8	8.2	/	-2.3	-2.0	-1.2	i
O=C(Nc1nccs1)c1ccccc1Br	-4.6	1.7	72.6	-18.2	-48.5	1.1	5.1	i
CC1CCN(C(=O)CSc2ccc(-c3cccnc3)nn2)CC1	1.2	3.3	-8.7	-25.1	0.0	8.6	-5.2	i
O=C(CCN1CCN(Cc2ccccc2)CC1)Nc1ccc(OCc2ccccc2)cc1	7.6	-5.8	33.6	-10.6	58.9*	-3.2	-5.7	i
COCCNC(=O)c1c[nH]c2ccc(S(=O)(=O)Nc3ccc(F)cc3F)cc2c1=O	0.1	-1.7	11.4	-12.6	1.6	19.8	13.8	i
Cc1ccc(C)c(OCCCNCc2ccccc2)c1	4.5	8.0	1.6	-25.4	22.0	-1.8	-0.3	i
CN1CCN(C(=O)CCCOc2ccc(Cl)cc2Cl)CC1	2.8	7.8	-5.3	1.8	-18.3	-0.3	-3.4	i
CCOC(=O)C1=C(COC(=O)COc2ccc(OCC)cc2)NC(=O)NC1C (centres undefined)	2.1	2.6	-7.1	/	-8.2	/	/	i
CC1CCC2(CC1)NC(=O)N(CC(=O)Nc1cccc(S(=O)(=O)N3CCCCC3)c1)C2=O (centres undefined)	2.0	-1.3	5.1	-1.2	0.7	/	/	/
COC(=O)c1sc(SC)c2c1CC(C)(C)C/C2=N/O	0.4	-3.3	2.0	/	-5.4	9.4	-12.0	/
COC(=O)c1sccc1NC(=O)CSc1ccccc1NC(=O)CNC(C)C	2.8	6.5	-1.3	/	-18.5	6.9	2.6	i
CC1(C)CC(=O)C=C(NCCO)C1	-3.4	-1.2	-6.0	-19.9	2.8	3.1	-6.2	i
CCN(CC)C(=O)c1ccc2nc(-c3ccccc3)c(-c3ccccc3)nc2c1	-4.2	-7.8	65.9	/	2.4	13.0	1.1	i
Cc1ccc(NC(=O)COc2ccc(S(=O)(=O)N3CCOCC3)cc2)cc1	0.4	-2.4	-2.7	-5.7	-81.1	3.7	1.0	i
Cc1ccc(N2CCN(C(=O)c3cccs3)CC2)c(C)c1	-1.8	-0.2	-13.0	-2.3	-6.1	3.2	3.5	/
Cc1ccc(CCC(=O)Nc2ccc([N+](=O)[O-])cc2Cl)o1	-4.4	-1.5	-4.8	-5.1	-16.6	-3.8	-6.9	i
CCOC(=O)C1=CC[C@@H](c2cc3cc(OC)ccc3n2C)N(S(=O)(=O)c2ccc(C)cc2)[C@H]1C(=O)OCC	-3.8	-9.3	/	19.3	29.3	/	/	/
Cc1cc(C)nc(CCNC(=O)c2cc(COc3ccc(F)cc3F)on2)n1	-0.6	3.7	-15.1	-7.2	11.0	6.0	-6.6	i
NC(Cc1ccc(Cl)cc1)c1csc(NC(=O)Nc2ccccc2)n1 (centres undefined)	8.2	-8.8	/	-23.6	60.8*	/	/	/
NC(=S)N=Nc1c(O)n(CC(=O)Nc2ccccc2)c2ccccc12	2.4	0.7	2.4	-6.5	-12.1	-5.0	1.1	i
COc1ccc(/C(O)=C2/C(=O)C(=O)N(CCCN(C)C)C2c2ccc(Cl)cc2)cc1OC (centres undefined)	-0.6	-2.6	-10.1	-11.1	/	/	/	i
CCOC(=O)CN1C(=O)S/C(=C/c2cc(C)n(-c3ccccn3)c2C)C1=O	-18.1	-2.8	23.1	1.1	/	117.3	120.7	i	eIF4H inh retest=-3.6;PABP FP inh retest=3.7
Cc1nnc(C)n1/N=C/c1cccc(Oc2ccccc2)c1	6.1	-4.6	-10.2	-9.1	/	11.1	6.3	i
O=C(NC(=S)Nc1cccc2cccnc12)c1ccccc1	-2.2	5.5	-4.2	-23.8	/	4.6	4.2	i
O=C(NCc1ccco1)c1nc2ncccn2n1	-6.1	-3.3	7.6	-12.1	/	-6.8	2.6	i
COc1ccc(C(=O)Nc2nc3ccccc3c(=O)[nH]2)cc1	-0.9	0.4	-8.2	-24.8	/	-3.6	3.9	i
CN(C(=O)CO/N=C/c1ccc(OC(F)F)cc1)C1CCS(=O)(=O)C1 (centres undefined)	3.2	2.9	-9.8	/	5.2	-3.3	9.0	i
Cc1ccccc1NS(=O)(=O)c1cc(C(=O)N2CCCC2)ccc1C	1.7	-1.8	-11.4	2.5	/	8.4	4.1	i
COc1ccc(/C=C/C(=O)NCc2nc3ccccc3[nH]2)cc1OC	3.2	5.0	-4.2	/	-9.3	-2.3	9.8	i
O=C(NCc1ccco1)c1ccc(Oc2ccccc2)cc1	-3.4	0.7	12.8	-13.3	3.5	-5.0	7.5	/
COc1ccc(C(=O)CN2C(=O)NC3(CCCc4ccccc43)C2=O)cc1OC (centres undefined)	0.2	-0.8	-10.1	8.5	-52.3	-10.2	7.9	i
O=C(O)CCC(=O)N1CCc2cc(S(=O)(=O)NCCc3ccc(Cl)cc3)ccc21	-0.6	2.2	-7.0	-24.7	/	17.4	-8.8	i
Cc1noc(C)c1S(=O)(=O)Nc1ccc2c(c1)C(=O)N([C@@H](C)CO)C[C@H](C)[C@@H](CN(C)Cc1ccc(C(F)(F)F)cc1)OCCCC[C@H](C)O2	-4.8	-7.2	/	6.8	-23.9	/	/	/
CC(=O)NS(=O)(=O)c1ccc(N=NN2CCCCC2)cc1	10.5	8.3	5.0	-16.3	-9.8	-8.6	-10.4	i
COCCN(C(=O)COC(=O)/C=C/c1ccc2ccccc2n1)c1c(N)n(Cc2ccccc2)c(=O)[nH]c1=O	-10.5	-8.4	32.7	17.4	24.5	0.1	-9.4	i
Cc1noc(C)c1C(=O)OCC(=O)NCCc1ccc(Cl)cc1	-1.9	1.3	-3.8	-10.3	-47.4	-2.3	-1.2	i

The results go on:
SMILES	MT1-MMP act inh	MT1-MMP act inh RFP	CSC inhib	Yeast UUG start	HIV Env fusion	PABP FP inh	eIF4H inh	Rce1 inhib	others
Cc1cc(N2CCOCC2)nc(N2CCOCC2)n1	1.0	4.3	1.5	/	6.5	3.2&1.9	-2.0&11.0	i
Cc1cc2c(ncn2C(C)C)c(N)c1C	-1.0	4.3	2.4	-7.2	-21.8	-2.4	-10.5	i
Cc1ccc(S(=O)(=O)N2CCCC2c2nc3ccccc3s2)cc1 (centres undefined)	1.0	-6.9	-6.2	-8.3	-11.9	-4.6	-13.9	i
O=C(CCCN1C(=O)/C(=C\c2cccs2)SC1=S)Nc1cccc(C(=O)O)c1	3.5	6.1	0.7	/	11.6	17.7	6.6	i
COc1cccc(CNC(=O)c2cc3ccccn3n2)c1	-1.9	1.7	0.6	-1.0	-9.5	-2.0	-5.7	i

High-throughput results from PubChem.
